Autofluor counter: compound fluorescence in toxin protease inhibitor counterscreen; compound autofluorescence counterscreen, microsphere flow cytometry; hits give high values; fluorescence intensity (test concentration not listed); hit rate 3.1% among 360,000; AID 624483;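 active = at least 3 SD above the mean of all compounds, about 16000 in these data; inconclusive = too few beads counted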;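 also: 100 nL of 1 mM stock went into each well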
PrP 5UTR inh: inhibition of PrP 5' UTR reporter expression; cell-based PrP 5' UTR mRNA reporter, plate reader; inhibition, % (no concentration beside the values); hit rate 0.35% among 340,000; AID 488862;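 active = every replicate at 50% or more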;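 also: 0 = median of the neutral control wells; tested in H4 reporter cells; numbers are from one replicate; inactives centre near -14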
Sa ugtP lethal: growth inhibition of S. aureus ugtP deletion strain | growth inhibition, % (no concentration beside the values) | S. aureus RN4220 ugtP deletion, OD600 growth, 16 h; some inactives read as strong as hits | AID 1259309 | hit rate 0.54% among 330,000;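 active = z-score under -3 and OD600 up to 0.15 on both plates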;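 also: plate controls were untreated wells for no effect and antibiotic for full effect; wells of about 80 µL received 100 nL stock; the first replicate is given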
BJeLR lethal: BJeLR cell viability loss | BJeLR (HRASV12) viability, CellTiter-Glo ATP luminescence, 48 h; reference of the scale not given here | hit rate 0.17% among 300,000 | inhibition, % (test concentration not listed) | AID 1554;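 active = replicate mean above 50%; inconclusive = above 50% but judged a plate artefact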;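 also: 50 nL library stock added to about 25 µL; numbers are from one replicate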
Sa RN4220 lethal: kills Staphylococcus aureus RN4220 | AID 1259311 | hit rate 0.33% among 330,000 | S. aureus RN4220 growth, OD600, 16 h | inhibition, % (no concentration beside the values);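 active = z-score of -3 or lower and OD600 up to 0.18 on both plates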;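 also: plate controls were untreated cells for no effect and reference antibiotic for full effect; stock transfer was 100 nL into about 80 µL; one replicate is shown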
Mtb hypoxia inh: Mtb hypoxia fluorescent reporter inhibition; M. tuberculosis hypoxia-regulated fluorescent reporter, fluorescence; fluorescence inhibition, % (no concentration beside the values); hit rate 0.1% among 300,000;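 active = 35 to 45% if threefold the growth effect, above 45% if 1.5-fold the growth effect; inactive = the rest, general growth blockers included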;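 also: wells of about 50 µL received 100 nL stock; 0% = vehicle wells and 100% = reference inhibitor wells; whole bacteria with a GFP reporter of the hypoxia response; strong numbers were not always called active; many hits fall short of the cut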
Mtb hypoxia inh growth: further read-out of Mtb hypoxia inh, marked with its call; growth inhibition, %; measured here: M. tuberculosis growth (absorbance);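 0% = vehicle and 100% = reference antibiotic; read after six days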
Active calls of the source: *; u = inconclusive; x = no result given.

SMILES	Autofluor counter	PrP 5UTR inh	Sa ugtP lethal	BJeLR lethal	Sa RN4220 lethal	Mtb hypoxia inh	Mtb hypoxia inh growth
COc1ccc(S(=O)(=O)NC(C)C(=O)NCCN2CCOCC2)cc1Cl (stereo unspecified)	3604	-33	1	0	-2.0	-8	-5
Cc1c(O)cccc1C(=O)NC(CSc1ccccc1)C(O)CN1CC2CCCCC2CC1C(=O)NC(C)(C)C (stereo unspecified)	x	x	42	x	1.0	-8	1
CC1(C)CC(=O)C2=C(C1)N(c1cccnc1)C(N)=C(C#N)C2c1cccs1 (stereo unspecified)	2402	-14	-4	-9	5.5	1	2
Cc1cccc(CN2C(=O)N/C(=C/c3ccc(C)s3)C2=O)c1	4135	-27	-9	11	-14	13	6
Cc1cc(NC(=O)CCC(=O)N(CCC(C)C)C(C(=O)NCC2CCCO2)c2ccccc2C)no1 (stereo unspecified)	5191	-12	15	14	1.3	3	7
O=C(c1ccco1)N1N=C(c2ccccc2)CC1c1ccc2nccnc2c1 (stereo unspecified)	4345	-24	12	-13	12	14	1
Cc1ccc(S(=O)(=O)N2CCN(CC(=O)Nc3ccccc3C(=O)NC3CC3)CC2)cc1	5239	-13	3	x	4.0	9	4
CCc1c(C)nc2nc(NC(C)=O)[nH]n2c1=O	8055	4	3	16	2.6	2	-6
Cn1cc(S(=O)(=O)c2ccccc2)c(=O)c2cc(Cl)ccc21	4329	-14	4	0	3.3	2	-8
O=C(NCc1ccc(S(=O)(=O)NC2CCCCC2)s1)c1ccccc1	6039	-15	-1	6	0.8	-6	11
CC(C)(C)n1nnnc1CN(Cc1cccnc1)Cc1ccccc1Cl	3271	-8	6	3	5.5	x	x
CC(C)CNC(=O)c1cc(-c2ccc(Br)cc2)on1	10957	-59	11	-4	12	5	5
CC1CCCC(C)N1CCCNC(=O)c1ccc2nc(N3CCCCC3)sc2c1 (stereo unspecified)	6564	-37	12	4	0.9	2	7
Cc1ccccc1NC(=O)CN1C(=O)NC2(CCCCCCC2)C1=O	u	-3	2	x	-1.1	-8	5
COc1ccc(N(C)S(=O)(=O)c2c(C)noc2C)c(OC)c1	3548	-15	1	0	4.9	1	-3
COC(=O)[C@H](Cc1ccccc1)NC(=O)NCCc1ccccc1F	3686	-19	4	11	-1.2	4	5
OCCNc1nc(N2CCN(c3ccccc3)CC2)nc2ccccc12	3926	3	-1	8	2.4	1	23
Cc1ccccc1N(CC(=O)NCc1ccco1)C(=O)CCC(=O)Nc1nccs1	2116	-21	9	-10	-0.4	10	9
O=C(CCC(=O)c1ccccc1)Nc1ccc(C(=O)O)cc1	3782	-18	-2	5	-3.6	-9	-1
CCOC(=O)C1C2COc3ccc(Br)cc3C2N2C(=O)N(c3ccc(C(F)(F)F)cc3)C(=O)[C@@]12C (stereo partly specified)	x	x	0	x	-6.8	4	5
COc1ccc(NC(=O)COC(=O)COc2ccc(Br)cc2)cc1	4352	-15	4	2	6.2	14	0
Fc1cccc(CSc2ccc(-c3ccco3)nn2)c1	9134	-51	9	15	7.0	-1	2
CCNc1ccc([N+](=O)[O-])cc1	4861	-23	10	-6	3.2	8	-2
O=C(Nc1ccc(OC(F)F)c(Cl)c1)[C@@H]1CCCN1C(=O)c1cccs1	2512	-10	x	-1	x	x	x
CCOC(=O)c1[nH]c(=O)[nH]c1CNc1ccccc1C#N	3290	-21	6	3	3.6	15	12
COc1ccc(NC(=O)NC2CCN(C(C)C)CC2)c(OC)c1	16455*	-10	-2	-5	0.1	-4	7
Cc1cccc(C(CC(=O)NCCc2ccccc2)c2ccccc2)c1O (stereo unspecified)	4772	9	6	x	7.2	2	13
COc1cccc(C(=O)OCn2nnc3ccccc3c2=O)c1OC	5581	-8	-3	11	-16	7	18
COc1ccc(/C=N/NS(C)(=O)=O)c(OC)c1	2069	-6	x	1	x	x	x
COc1ccccc1N1CCN(C(=O)c2cccc(N3C(=O)C4C5C=CC(C5)C4C3=O)c2)CC1 (stereo unspecified)	5374	-8	-2	2	0.2	6	2
Cc1ccc(C)c(NC(=O)CN(C)C(=O)CSCc2c(C)noc2C)c1	x	1	4	-2	4.7	0	13
O=C(N/N=C/c1cccnc1)c1ccc([N+](=O)[O-])cc1	3231	-13	x	0	x	x	x
COc1cccc(NC(=O)Nc2nccc(C)n2)c1	2583	5	4	2	5.1	4	0
O=CN/N=C/c1c(O)ccc2ccccc12	4501	-11	x	16	x	x	x
COc1ccc(NC(=O)CSc2nc(=O)n(CCN3CCOCC3)c3c2CCC3)cc1	x	-10	6	4	4.7	2	5
COc1ccc(NC(=O)Cn2c(=O)cnc3ccccc32)cc1S(=O)(=O)N1CCCCC1	6179	-4	3	18	2.4	9	5
CCn1c(O)c(C=NCCN2CCOCC2)sc1=S	2568	-7	-4	-9	3.0	3	8
CCn1c(-c2nn(-c3ccc(C)cc3)ccc2=O)n[nH]c1=S	3501	-21	-9	x	-5.4	-9	4
COC(=O)C1=C(C)N(Cc2ccccc2)C(=NCCc2ccccn2)NC1c1cccc(F)c1 (stereo unspecified)	x	x	-5	x	-1.2	3	8
O=C(NCCCCCCNC(=O)N1CCCCCC1)N1CCCCCC1	9478	-4	4	-13	4.8	8	11
S=C(N/N=C/c1ccc2ncccc2c1)Nc1cccnc1	4359	9	x	-3	x	x	x
COc1ccc(-n2nc3c(c2NC(=O)c2cc(Br)ccc2Cl)CS(=O)C3)cc1 (stereo unspecified)	6018	2	11	8	1.3	8	11
CN(C(=O)C1CCC(=O)N(CCc2ccc(Cl)cc2)C1)C1CCOCC1 (stereo unspecified)	6036	-11	5	12	1.9	3	6
COC(=O)c1ccc(COc2ccccc2C=C(C#N)C(=O)NC(C)C)cc1	x	x	3	x	6.5	5	-2
CCc1cc2c(=O)n(CC(=O)NCCc3ccc(OC)c(OC)c3)cnc2s1	4943	-9	7	-1	4.4	9	0

Copied from the list:
Result of CCn1c(O)c(C=NCCN2CCOCC2)sc1=S in Mtb hypoxia inh: 3
Result of COC(=O)c1ccc(COc2ccccc2C=C(C#N)C(=O)NC(C)C)cc1 in Sa ugtP lethal: 3

Additional structures:
SMILES	Autofluor counter	PrP 5UTR inh	Sa ugtP lethal	BJeLR lethal	Sa RN4220 lethal	Mtb hypoxia inh	Mtb hypoxia inh growth
CCCSc1ccc([C@@H]2[C@@H]3C(=O)N(C)C(=O)[C@@H]3[C@]3(C(=O)OC)CCCCN23)cc1OC	3929	-14	x	0	x	x	x
CCN(Cc1ccc(C#CCCO)cc1)CC1CCCN(CCc2cccc(F)c2)C1 (stereo unspecified)	5021	-21	x	-8	x	x	x
Cc1cc(C)cc(NC(=O)c2sc3nc(C)cc(C)c3c2N)c1	4222	-3	-4	-3	2.2	0	-2
COCCN1C(=O)c2ccccc2C(C(=O)NCc2ccco2)C1c1c[nH]c2ccccc12 (stereo unspecified)	4291	-12	4	-1	0.7	x	x
COc1ccccc1CNC(=O)CCNS(=O)(=O)c1cccc2nonc12	5560	-12	1	-6	2.7	-5	-1
COc1ccccc1CNS(=O)(=O)c1c(C(=O)N2CCCCC2)c(C)n(C)c1C	5517	-29	6	6	5.5	16	1
CN(CC(=O)NCCc1ccc(S(N)(=O)=O)cc1)c1ccccc1	4238	0	9	-3	3.0	16	8
Cc1ccc(C)c(NC(=S)N(Cc2ccco2)C(C)c2cccs2)c1 (stereo unspecified)	4553	-7	4	-1	1.7	12	0
O=C(COC(=O)/C=C/c1ccc(F)cc1)NC1CCCC1	5467	-8	3	x	3.8	0	-3
Cc1nc(SCC(O)CCl)c([N+](=O)[O-])[nH]1 (stereo unspecified)	3070	-19	-2	-10	-5.8	8	6
CCOC(=O)c1sc(=S)n(-c2ccc(OC)cc2)c1C	4085	x	-4	9	-0.7	-17	-4
Oc1ccc(N2CCN(C(=S)NCCc3ccccc3)CC2)cc1	2209	-3	-6	7	-3.9	8	4
COc1ccc(CCNC(=O)CS(=O)Cc2nc(-c3ccccc3Cl)oc2C)cc1OC (stereo unspecified)	4099	-17	0	-6	1.2	-4	7
O=C(NCCCNc1ccc(C(F)(F)F)cc1[N+](=O)[O-])c1cc(F)c(F)cc1Cl	2911	-9	-3	-7	-8.4	2	2
c1ccc(-n2c(-c3cccs3)nc3nc4ccccc4nc32)cc1	2312	-64	-6	2	25	-7	-16
COc1ccccc1C(=O)Nc1c(C(=O)N(CCN(C)C)Cc2ccco2)oc2ccccc12	6220	-2	-12	-1	-4.7	1	13
Cc1[nH]c2ccccc2c1C=NNC(=O)c1cccc([N+](=O)[O-])c1	x	x	-2	x	-0.9	4	4
COCCNC(=O)c1cccc(OC2CCN(Cc3ccccc3OCCO)CC2)c1	4210	-28	-5	-9	-5.3	-6	-15
COc1cccc(CN(C)Cc2nc3cc(C(F)(F)F)ccc3c(=O)[nH]2)c1	3403	-11	-1	-13	-1.2	-1	5
N#Cc1c(NC(=O)/C=C/c2ccco2)sc2c1CCCC2	2342	2	3	56*	-0.6	-1	-1
CC(C)(C)c1cc(NC(=O)COC(=O)C2CC2)n(-c2ccccc2)n1	4140	0	-2	5	0.2	x	x
N#CC1(CCCN2CCCCC2)c2ccccc2CCc2ccccc21	6105	-10	5	6	1.8	11	-2
Cc1ccc(S(=O)(=O)n2cnc3ccccc32)cc1	16399*	-12	7	-3	6.4	4	3
COc1ccc(C2=CSC(N=Cc3ccc(F)cc3)=NN2)cc1	x	x	-18	x	-1.6	39*	60*
CC1CCCCN1CCNC(=O)c1ccc2c(c1)N(Cc1cccc(Cl)c1)C(=O)c1ccccc1S2=O (stereo unspecified)	7360	-15	-2	8	9.4	-3	8
COC(=O)c1cc(OC)c(OC)cc1NCC(=O)Nc1cccc(C(F)(F)F)c1	2578	-14	-8	-9	-4.2	10	3
COc1ccc(C(=O)NCCNc2ncc(C(F)(F)F)cc2Cl)cc1[N+](=O)[O-]	5368	-2	-14	-1	1.9	5	7
CC(=NNC(=O)c1ccc(CSc2cccc3cccnc23)cc1)C1CCCCC1	x	x	-2	x	4.7	12	5
Cc1nn(-c2ccccc2)c(Cl)c1/C=C/C(=O)c1ccccc1	3528	-24	2	-2	6.8	4	13
CC(Oc1ccc(Br)cc1)C(=O)N1CCc2ccccc21 (stereo unspecified)	4817	-10	5	-4	-3.8	17	22

The closing 6 entries of the section before lead into the next.
SMILES	Autofluor counter	PrP 5UTR inh	Sa ugtP lethal	BJeLR lethal	Sa RN4220 lethal	Mtb hypoxia inh	Mtb hypoxia inh growth
CC1CCCCN1CCNC(=O)c1ccc2c(c1)N(Cc1cccc(Cl)c1)C(=O)c1ccccc1S2=O (stereo unspecified)	7360	-15	-2	8	9.4	-3	8
COC(=O)c1cc(OC)c(OC)cc1NCC(=O)Nc1cccc(C(F)(F)F)c1	2578	-14	-8	-9	-4.2	10	3
COc1ccc(C(=O)NCCNc2ncc(C(F)(F)F)cc2Cl)cc1[N+](=O)[O-]	5368	-2	-14	-1	1.9	5	7
CC(=NNC(=O)c1ccc(CSc2cccc3cccnc23)cc1)C1CCCCC1	x	x	-2	x	4.7	12	5
Cc1nn(-c2ccccc2)c(Cl)c1/C=C/C(=O)c1ccccc1	3528	-24	2	-2	6.8	4	13
CC(Oc1ccc(Br)cc1)C(=O)N1CCc2ccccc21 (stereo unspecified)	4817	-10	5	-4	-3.8	17	22
O=C(CNCC1CCCO1)Nc1ccccc1N1CCOCC1 (stereo unspecified)	22897*	-24	4	-3	3.0	3	-2
O=C(CC(NCc1ccccn1)C(=O)O)Nc1ccccc1Cl (stereo unspecified)	4498	-10	-2	5	6.6	11	6
CCCc1nnc(NC(=O)CCC(=O)Nc2ccc(Br)cc2)s1	4379	-3	4	-8	4.5	10	-5
O=C(COC(=O)c1cc(Cl)ccc1O)NCCNC(=O)COC(=O)c1cc(Cl)ccc1O	3872	-2	12	-7	6.8	-8	-11
Cn1c(CNC(=O)c2ccccc2)nnc1SCC(=O)N1CCN(c2ccccc2)CC1	3310	-16	4	-15	3.2	4	10
O=C(CCSc1ccccc1)Nc1nc2c(s1)COc1ccccc1-2	4303	-20	15	0	-10	8	7
CC(C)(C)OC(=O)N1CCNc2ccccc2C1	4489	-14	-1	8	4.0	x	x
Cc1ccc(-c2nnn(C(C)C(=O)N3c4ccccc4CCc4ccccc43)n2)cc1 (stereo unspecified)	4741	-8	-4	-13	-13	x	x
Cc1ccc(OCCC(=O)OCC(=O)NCCc2ccccc2)cc1	4232	35	7	8	2.3	18	10
COc1cc(C=O)ccc1OCCSc1ccc(C)cc1	18295*	-71	10	-3	-1.7	7	11
